# STK33 kinase inh – blocks human STK33 kinase activity; purified STK33, MBP phosphorylation, ADP-Glo luminescence; 0.073% of 320,000 active; AID 2661; inhibition, % at 10 µM;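 active means inhibition at or above 25%, using the most active replicate where run in duplicate; inactive means inhibition below 25%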
# Target sequence (Q9BYT3 whole entry, looked up): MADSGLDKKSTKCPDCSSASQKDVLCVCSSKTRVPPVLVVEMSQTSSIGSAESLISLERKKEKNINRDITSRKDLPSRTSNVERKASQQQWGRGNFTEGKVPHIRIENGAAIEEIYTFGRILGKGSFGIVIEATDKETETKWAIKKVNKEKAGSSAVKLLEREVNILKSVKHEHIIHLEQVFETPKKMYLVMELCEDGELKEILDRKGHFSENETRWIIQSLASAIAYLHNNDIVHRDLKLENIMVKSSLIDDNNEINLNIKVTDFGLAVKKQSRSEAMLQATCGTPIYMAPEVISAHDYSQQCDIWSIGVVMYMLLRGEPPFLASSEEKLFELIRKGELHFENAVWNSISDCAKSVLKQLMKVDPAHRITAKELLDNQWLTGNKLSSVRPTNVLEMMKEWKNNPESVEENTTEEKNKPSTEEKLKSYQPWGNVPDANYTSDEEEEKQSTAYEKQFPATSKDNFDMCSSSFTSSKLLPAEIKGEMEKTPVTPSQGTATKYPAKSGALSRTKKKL
# Numbers without * were called inactive. This is a subset, and most or all hits are left out here.
mol | STK33 kinase inh
O=C(COC(=O)c1cccc([N+](=O)[O-])c1)NC1CCCC1 | -0.5
CC(C)(C)C1CCc2onc(C(=O)Nc3ccc(F)cc3F)c2C1 (stereo unspecified) | -1.3
O=C(CCl)N1c2ccccc2SCC1c1ccccc1 (stereo unspecified) | -1.8
CNc1oc(-c2cccs2)nc1S(=O)(=O)c1ccccc1 | -0.9
COc1cccc(C(=O)Nc2cc(C(F)(F)F)ccc2Cl)c1 | -1.4
CCOC(=O)C1=C(CC)NC2=C(C(=O)CCC2)C1c1ccc(OC)c(OC)c1 (stereo unspecified) | -1.5
CC(=O)Oc1ccc(NC(=O)Cc2ccccc2)c(C(=O)O)c1 | 2.0
CC1CCCN(C(C(=O)Nc2ccc3c(c2)OCCO3)c2ccccc2)C1 (stereo unspecified) | 0.0
COc1cccc(-n2c(COc3ccc(C)cc3)nnc2SCC(N)=O)c1 | -0.8
CCc1ccc(NC(=O)CNS(=O)(=O)c2c(C)noc2C)cc1 | 0.1
COC1(OC)C=CC(=O)C=C1NC(=O)c1ccccc1OC(C)=O | 8.2
CC(C)Cn1c(N)c(C(=O)COC(=O)C2=COCCO2)c(=O)n(C)c1=O | -0.1
Cn1c(=O)[nH]c(=O)c2c1nc(Br)n2CCCO | -1.6
Cc1ccc(S(=O)(=O)N(C)c2ccccc2C(=O)Nc2c(F)cccc2F)cc1 | -1.0
COc1cc(NC(=O)COC(=O)CSc2cc(C)ccc2C)c(C)cc1[N+](=O)[O-] | -0.9
Cc1ccc(C(=O)NC(N2CCCC2)C(Cl)(Cl)Cl)cc1 (stereo unspecified) | -1.5
CCN(CC)C(=O)CSc1nc2c(sc(=S)n2-c2ccccc2)c(=O)[nH]1 | 0.1
Cc1ccc(S(=O)(=O)N2CCN(S(C)(=O)=O)CC2)cc1 | 0.2
O=S(=O)(c1ccc(Cl)cc1)N1CCC(O)(c2cccnc2)CC1 | -1.5
COc1ccc(N2CCN(c3ccc(Cl)nn3)CC2)cc1 | -0.3
COc1cccc(O)c1CN1CCC(C(=O)Nc2ccc(Oc3cccnc3)cc2)CC1 | -0.1
O=C(NCCc1cn2ccsc2n1)C1CCCCC1 | 0.9
Cc1cc(N2CCOCC2)ccc1/C=C1\NC(=O)N(CC(=O)Nc2ccccc2C)C1=O | -0.2
CC(=O)c1cccc(NS(=O)(=O)c2ccc(N/C=C/C(=O)c3ccc(F)cc3)cc2)c1 | -0.8
CC(C)CC(NC(=O)C1CCC(=O)N1C(=O)OCc1ccccc1)C(=O)NC(Cc1ccccc1)C(N)=O (stereo unspecified) | -0.1
COc1ccc(-c2cc(C(=O)Nc3cc(C)on3)no2)cc1OC | -2.8
COc1ccccc1OCCC(=O)OCC(=O)Nc1ccc(Br)cc1F | -0.9
Cc1ccc(C)c(NC(=O)Nc2ccc3c(c2)OCO3)c1 | -0.1
CN1CCN(C2=C(Cl)C(=O)N(C3CCCCC3)C2=O)CC1 | 0.2
COc1ccccc1CN(C)C(=O)C(c1ccccc1)c1ccccc1 | -2.9
Cc1cccc(NC(=S)N/N=C/C(C)c2ccccc2)c1C (stereo unspecified) | -0.6
Cc1ccccc1-c1nc(CSc2nc3c(c(=O)[nH]2)CCC3)c(C)o1 | -2.7
O=C(CSc1nnc(-c2ccncc2)o1)Nc1ccccc1C(F)(F)F | 1.3
Cc1sc2nc(C(C)C)nc(SCC(=O)NC3CC3)c2c1C | -0.1
OCCCNCc1ccc(Cl)cc1Cl | 1.3
CCOC(=O)C(C)Sc1nc(-c2cccs2)ccc1C#N (stereo unspecified) | -1.2
CC1=C(C(=O)Nc2ccccc2)C(c2ccccn2)n2ncnc2N1 (stereo unspecified) | -0.1
CC(C)Oc1ccc(CNC(=O)C2CCCN(S(=O)(=O)N3CCOCC3)C2)cc1 (stereo unspecified) | -0.1
CC1Sc2ccc(C(=O)OCc3ccccc3Cl)cc2NC1=O (stereo unspecified) | 0.2
COc1ccc(CC(=O)NCC2CCCN(Cc3ccccc3OC)C2)cc1 (stereo unspecified) | -1.9
CC(C)(C)CN1CCNC(=O)C1CC(=O)N1CCC(C(=O)N2CCOCC2)CC1 (stereo unspecified) | -0.2
C=CCc1ccc(OCC(O)CO)c(OC)c1 (stereo unspecified) | -1.6
CCOc1ccc(Br)cc1S(=O)(=O)Nc1ccc(C(=O)OC(C)C(=O)N(C)c2ccccc2)cc1 (stereo unspecified) | 0.6
O=C(O)C1C(C(=O)O)C1(c1ccccc1)c1ccccc1 (stereo unspecified) | -1.6
Cc1cccc(NCc2n[nH]c(=S)n2-c2ccccc2)c1 | -0.7
COc1cc(C(=O)N/N=C/c2ccccn2)cc(OC)c1OC | 2.0
Nc1ncnc2nc(SCc3ccccc3)[nH]c12 | 1.2
O=C(Cc1ccccc1F)NCC1(N2CCOCC2)CCCCC1 | -1.5
Cc1ccccc1C(=O)OCc1cnc(Cl)s1 | -0.6
COc1ccc(OC)c(NC(=O)[C@@H]2CCCN2C(=O)c2cccs2)c1 | -1.3
Cc1nc(NCC2CCCO2)nc2c1C(=O)CC(C)C2 (stereo unspecified) | -0.9
COc1cccc2sc(NN)nc12 | -0.7
O=C(Nc1nc2ccc(Cl)cc2s1)c1ccc(Br)o1 | 2.1
COc1cccc(CN(C)C(=O)CNC(=O)c2cccs2)c1OC | -1.6
CCOC(=O)c1c(O)cc(C)[nH]c1=O | -0.7
CCOC(=O)C1(CCOC)CCN(C(=O)Cc2ccsc2)CC1 | -1.5
COc1cc(CNc2ccc3[nH]c(=O)[nH]c3c2)ccc1OCc1ccccc1F | -1.1
CCCCOc1ccc(N2C(N)=NC(N)=NC23CCCCC3)cc1 | -0.9
CN(C)c1ccc(CNCCC2CCOC(C)(C)C2)cc1 (stereo unspecified) | -1.9
O=C(CSc1nc2ccsc2c(=O)n1Cc1ccc(C(=O)O)cc1)NCC1CCCO1 (stereo unspecified) | -1.2

# Compounds shown so far containing a tert-butyl group, in the order listed:
mol | STK33 kinase inh
CC(C)(C)C1CCc2onc(C(=O)Nc3ccc(F)cc3F)c2C1 (stereo unspecified) | -1.3
CC(C)(C)CN1CCNC(=O)C1CC(=O)N1CCC(C(=O)N2CCOCC2)CC1 (stereo unspecified) | -0.2

# More results follow.
mol | STK33 kinase inh
COc1ccc(/C=N/N(CCC(=O)NC(C)(C)C)C2=NS(=O)(=O)c3ccccc32)cc1 | -0.9
O=C(O)c1ccc(N/N=C/c2ccncc2)cc1 | 0.5
CCCCC(=O)N1CCN(c2ccc(OC)cc2[N+](=O)[O-])CC1 | -1.0
Cc1cccc(N2CCN(C(=O)CCC(=O)N3Cc4ccccc4Oc4ncccc43)CC2)c1C | 0.1
CC(=O)Nc1cccc(NC(=O)C2CC(=O)N(C3CCCCC3)C2)c1 (stereo unspecified) | -2.2
CCc1ccc2[nH]c(=O)c(C(c3nnnn3Cc3ccco3)N3CCC(C)CC3)cc2c1 (stereo unspecified) | -1.4
O=C(NCC1CCCN1S(=O)(=O)c1cccs1)c1ccc(Cl)cc1 (stereo unspecified) | -1.7
O=C(COC(=O)CCc1nc2ccccc2s1)Nc1ccc(Cl)cn1 | -0.6
COc1ccc2c(CC(=O)OCC(=O)Nc3sc4c(c3C#N)CCC(C)C4)coc2c1 (stereo unspecified) | -0.2
O=C(NCc1ccc(F)cc1)C(c1ccc(Cl)cc1)N(C(=O)c1csnn1)C1CC1 (stereo unspecified) | -1.7
O=S(=O)(c1ccccc1)N1CCc2ccccc21 | -1.5
Cc1nc2ccccc2n1CCc1ccccc1 | -2.8
Cc1ccc(N2C(=NC(=O)c3ccccc3)SC3CS(=O)(=O)CC32)cc1 (stereo unspecified) | -0.7
COc1ccc(Cl)cc1NC(=O)CNC(c1ccccc1)c1ccccc1 | -2.7
Cn1c2ccccc2c2n[nH]c(=S)nc21 | -2.1
O=C(C1CCCCC1)N1CCC(c2nc3ccccc3[nH]2)CC1 | -0.1
COc1ccccc1CNC(=O)CCCC(=O)n1ncc2cc(C)ccc21 | -1.2
C=CCNC(=O)c1onc(CSc2cccc(Cl)c2)c1C(=O)O | -1.0
O=C(CCCN1C(=O)c2cccc3cccc(c23)C1=O)N1CCN(c2ccc(F)cc2)CC1 | -1.7
Cn1c(=O)[nH]c(=O)c2c1nc(N1CCC(Cc3ccccc3)CC1)n2Cc1ccccc1 | 1.6
COc1ccccc1N1CCN(c2nc3ccccc3nc2C(C#N)C(=O)OC(C)C)CC1 (stereo unspecified) | 0.0
Cc1cnc(C(=O)OCC(=O)N=c2sccn2Cc2ccccc2Cl)cn1 | -0.3
O=C1C(=O)N(C2CCCC2)C(=O)N1Cc1c(F)cccc1Cl | -0.7
Cc1cc2oc(=O)cc(C)c2cc1NC(=O)CCl | -0.4
C=CCn1c(=S)[nH]c2cc(-c3ccccc3)sc2c1=O | -0.4
O=C(Nc1ccc(N2CCCCC2)cc1)c1cccnc1Cl | 0.7
Cc1ccc(NC(=O)C2CCN(C(=O)NCc3ccccc3)CC2)cc1C | -1.6
O=C(NC(=S)Nc1ccc(Br)cn1)c1cccnc1 | -0.9
CCCCN(C(=O)Oc1ccccc1)C1CCS(=O)(=O)C1 (stereo unspecified) | -0.2
COc1ccc(-c2noc(CNS(=O)(=O)c3ccccc3)n2)cc1 | -1.7
CCn1nc(NS(=O)(=O)c2ccc(NC(C)=O)cc2)c2cc3ccc(C)cc3nc21 | 0.3
CC(=O)c1cc(CC=C(C)C)c(O)c(CC=C(C)C)c1O | 0.6
CC(C)c1ccc(/C=C/C(=O)NCc2ccc(S(N)(=O)=O)cc2)cc1 | -1.6
CC1CCN(S(=O)(=O)c2ccc3c(c2)NC(=O)CS3)CC1 | -0.8
O=C1NC[C@H](c2ccccc2)N(CCc2cccc3ccccc23)C1=O | -1.0
COC(=O)c1cnc(Oc2ccc(NC(=O)NC(=O)c3ccccc3Cl)cc2)cc1C(F)(F)F | -1.5
Cc1ccc(S(=O)(=O)Cc2ccc(C(=O)NCCc3ccccc3)o2)cc1 | 0.3
CSc1ccccc1C(=O)N1CCC2(CC1)CC(=O)c1ccccc1O2 | -1.1
COc1ccc2c(c1)CCc1c-2n[nH]c1C(=O)NCCC(C)C | -2.1
C/C(CC(=O)NCc1ccco1)=N\NC(=O)COc1ccc(Cl)cc1Cl | -1.0
COc1ccccc1CN(C)C(=O)C1COc2ccccc2O1 (stereo unspecified) | -0.4
CC(OC(=O)C12CC3CC(CC(O)(C3)C1)C2)C(N)=O (stereo unspecified) | 1.8
CC(=O)Nc1cc(Cl)ccc1OS(=O)(=O)c1ccc(C)cc1 | 3.4
CCOC(=O)c1nnn(-c2nonc2N)c1CS(=O)(=O)c1ccccc1 | -0.8
O=c1c2c3c(sc2nc2n1CCC2)CCC3 | 0.3
CC(=O)Nc1ccc(OCc2cccc([N+](=O)[O-])c2)cc1 | -0.6
NS(=O)(=O)c1ccc(NC(=O)CSc2nc3c(c(=O)[nH]2)CCCC3)cc1 | 2.0
Cc1cc(C(=O)NNC(=O)NC(C)C)no1 | -2.5
CCCCn1nnc(NC(=O)c2sc3cc(Cl)ccc3c2Cl)n1 | -1.0
O=C(COC(=O)c1ccncc1)Nc1cccc(Cl)c1 | -0.6
CCCOc1nc(SCCC)nc2c1cnn2-c1ccccc1 | 1.3
Cc1cc(=O)[nH]c(N2CCCC2)n1 | -1.0
O=C(CSc1nc2ncc(Cl)cc2[nH]1)c1c[nH]c2ccccc12 | 1.0
COc1ccc2cc(S(=O)(=O)N3CCCCCC3)ccc2c1 | -1.2
Cc1nn(CC(=O)N2CCN(C34CC5CC(CC(C5)C3)C4)CC2)c(C)c1[N+](=O)[O-] | -1.5
COc1cccc(/C=C2\SC(=S)N(NS(=O)(=O)c3ccc(C)cc3)C2=O)c1OC | -0.2
S=c1[nH]nc(C23CC4CC(CC(C4)C2)C3)n1Cc1ccco1 | -1.0
CCOc1ccc(-n2c(C)c(C(C)=O)c3cc(OCC(N)=O)ccc32)cc1 | 0.3
O=c1sc2ccccc2c(N2CCOCC2)c1[N+](=O)[O-] | -0.9
COc1ccc(NS(=O)(=O)c2ccc(OC)c(NC(=O)CCC3CCCCC3)c2)cc1 | 1.8

# 3 entries already listed, sorted by the value under STK33 kinase inh, rising:
mol | STK33 kinase inh
CC(C)(C)C1CCc2onc(C(=O)Nc3ccc(F)cc3F)c2C1 (stereo unspecified) | -1.3
O=c1sc2ccccc2c(N2CCOCC2)c1[N+](=O)[O-] | -0.9
Cc1cc2oc(=O)cc(C)c2cc1NC(=O)CCl | -0.4

# The list continues:
mol | STK33 kinase inh
Cc1cc(C(=O)CN2C(=O)NC3(CCCCC3C)C2=O)c(C)n1Cc1cccs1 (stereo unspecified) | 1.1
COc1cc2c(cc1OC)CN(C(=O)c1cc(S(=O)(=O)N3CCOCC3)ccc1C)CC2 | -1.5
COc1ccc(C(=O)Cc2ccccc2)cc1OC | 5.4
Cn1c(=O)c2c(nc(SCC(=O)Nc3ccccc3N3CCCCC3)n2C)n(C)c1=O | 0.0
N#Cc1c(N)sc2c1CCN(C(=O)OCc1ccccc1)C2 | -0.5
Cn1c(-c2ccccc2)n[nH]c1=S | -2.0
O=C1CSC(c2ccc(F)cc2)N1c1nc2ccccc2s1 (stereo unspecified) | 0.7
Cc1ccc(C(=O)NNC(=S)NC(=O)COc2ccccc2)cc1 | -2.0
O=C1OCC(c2ccccc2)=C1c1ccccc1 | 0.1
CCCCc1noc2c1/C(=N\O)CC(c1ccccc1)C2 (stereo unspecified) | -0.7
O=c1nc2n(c3cc(Cl)c(S(=O)(=O)N4CCOCC4)cc13)CCCCC2 | 1.6
CCOC(=O)C1CCN(CC(=O)N(CC(C)C)c2c(N)n(CC(C)C)c(=O)[nH]c2=O)CC1 | 0.9

# Some of these compounds in order of length of the SMILES, smallest number first:
mol | STK33 kinase inh
COc1ccc(C(=O)Cc2ccccc2)cc1OC | 5.4
N#Cc1c(N)sc2c1CCN(C(=O)OCc1ccccc1)C2 | -0.5
O=c1nc2n(c3cc(Cl)c(S(=O)(=O)N4CCOCC4)cc13)CCCCC2 | 1.6
Cn1c(=O)c2c(nc(SCC(=O)Nc3ccccc3N3CCCCC3)n2C)n(C)c1=O | 0.0
